# Assay outcomes (PubChem)
# AID504770: E. coli YBA685 growth inhibition, screen for V. cholerae RctB inhibitors. AID 504770. z-score (no concentration beside the values). E. coli YBA685 rctB-dependent plasmid, OD600 growth, 3 h; stronger effect = lower value. 0.27% of 130,000 active;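 active means z-score under -2 on both plates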;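 further: wells of about 30 µL received 100 nL stock; score is relative to mean and SD of the test wells; the first replicate is given; strong numbers were not always called active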
# Ba CapD inh: CapD enzyme inhibition; purified CapD enzyme, fluorescence intensity read-out; stronger effect = lower value; some hits fall short of the stated cut; z-score (concentration not given with the values); 0.23% of 140,000 active;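 active means z-score under -4 in either of two replicates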;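 further: stock transfer was 100 nL into about 40 µL; score is relative to mean and spread of the plate; one replicate is shown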
# * hit, by the source's call; . = not tested or not shown.
# Fields – AID504770	Ba CapD inh
Cc1ccc(Cl)cc1NC(=S)NCc1ccncc1
→ .	-0.78
COC(=O)c1cc(OCC(F)(F)F)nc(OCC(F)(F)F)c1
→ .	1.27
COC(=O)C1=C(C)OC(N)=C(C#N)C1c1ccccc1Cl (stereo not drawn)
→ .	1.15
O=C(NC1CCCCC1)C1CCCN1C(=O)Oc1ccccc1 (stereo not drawn)
→ -0.5	-0.215
O=C(O)c1ccccc1C(=O)NCc1ccccc1
→ 1.55	-0.06
Nc1c(NC2CCN(Cc3ccccc3)CC2)c2ccccc2oc1=O
→ -1.3	-0.72
Cc1c(Cl)cccc1NC(=O)C1CC(=O)N(C(C)C)C1 (stereo not drawn)
→ -0.05	0.15
COc1cc(C#N)ccc1OCC(=O)Nc1cccc2nsnc12
→ 0.35	.
COc1ccc(N(Cc2nc(N)nc(N)n2)S(=O)(=O)c2cc(C)ccc2C)cc1
→ -0.2	.
CC1(C)CC(=O)C2=C(C1)OC(N)=C(C#N)C2CCc1ccccc1 (stereo not drawn)
→ -1	-0.145
COC(=O)C1=CO[C@H](C)[C@@H]2CN3CCC4(C(=O)Nc5ccccc54)C3C[C@H]12 (stereo partly drawn)
→ -0.3	0
COC(=O)c1ccc(Cn2c(/C=C/c3ccccc3)nc3cc(C)c(C)cc32)cc1
→ .	43.6
O=C(O)c1c2c(nc3ccccc13)CCNC2
→ .	-0.21
COc1cc(/C=N/OCC(=O)N2C(C)CCCC2C)ccc1OC(F)F (stereo not drawn)
→ 1.3	.
O=C(NC1CCN(c2ncccn2)CC1)c1c(F)cccc1F
→ -0.35	10.8

# Four entries from above, field by field:
> O=C(NC1CCCCC1)C1CCCN1C(=O)Oc1ccccc1 (stereo not drawn)
  AID504770: -0.5
  Ba CapD inh: -0.215
> O=C(NC1CCN(c2ncccn2)CC1)c1c(F)cccc1F
  AID504770: -0.35
  Ba CapD inh: 10.8
> COC(=O)c1cc(OCC(F)(F)F)nc(OCC(F)(F)F)c1
  AID504770: .
  Ba CapD inh: 1.27
> Cc1ccc(Cl)cc1NC(=S)NCc1ccncc1
  AID504770: .
  Ba CapD inh: -0.78

# Remaining list, next part.
# Fields – AID504770	Ba CapD inh
C=CCOc1nc(N2CCCC2)nc(N2CCCC2)n1
→ 0.35	-0.155
COc1ccccc1OCCNC(=O)c1ccc(-n2cnnc2)cc1Cl
→ -1.4	0.01
CC1CN(C)C(C)CC1OC(=O)c1ccco1 (stereo not drawn)
→ -0.5	-0.045
CC(C)(C)OC(=O)C(CCCNC(=O)OCc1ccccc1)NC(=O)c1ccccc1COC(=O)c1ccccc1 (stereo not drawn)
→ .	-0.85
CSC(N)=Nc1cc(C)c(C)cc1C
→ -0.7	-0.29
Cc1ccc(Nc2c(-c3ccc(N4CCOCC4)cc3)nc3ccccn23)cc1
→ -0.35	49
CCCCOc1ccc(C(=O)OCC2CCCN3CCCCC23)cc1OC (stereo not drawn)
→ -0.6	.
CC(C)CN1C(=O)c2ccc(C(=O)Nc3ccncc3)cc2C1=O
→ -0.15	0.015
CCN1CC(=O)N(CC)C1=S
→ -0.15	.
Cc1nc2oc3ccc(Cl)cc3c(=O)c2cc1C(=O)Nc1ccncc1
→ .	-0.26
COc1ccc2ncc(S(=O)(=O)c3ccc(C)c(C)c3)c(N3CCN(C)CC3)c2c1
→ -0.3	.
COc1ccc(C2Nc3ccccc3C(=O)N2Cc2ccco2)cc1Cn1nc(C)c(Br)c1C (stereo not drawn)
→ .	5.88
COc1ccc([N+](=O)[O-])cc1NC(=O)c1sc2nc(C)nc(N3CCN(c4ccccn4)CC3)c2c1C
→ .	0.105
CC1CN(C(=O)Nc2ccc(F)cc2)c2ccccc2S1 (stereo not drawn)
→ 2.2	-0.9
Cc1ccc(S(C)(=O)=O)s1
→ -1	-0.16

# Copied from the results shown, seven compounds:
# Fields – AID504770	Ba CapD inh
C=CCOc1nc(N2CCCC2)nc(N2CCCC2)n1
→ 0.35	-0.155
COc1ccccc1OCCNC(=O)c1ccc(-n2cnnc2)cc1Cl
→ -1.4	0.01
CC1CN(C)C(C)CC1OC(=O)c1ccco1 (stereo not drawn)
→ -0.5	-0.045
CC(C)(C)OC(=O)C(CCCNC(=O)OCc1ccccc1)NC(=O)c1ccccc1COC(=O)c1ccccc1 (stereo not drawn)
→ .	-0.85
CSC(N)=Nc1cc(C)c(C)cc1C
→ -0.7	-0.29
Cc1ccc(Nc2c(-c3ccc(N4CCOCC4)cc3)nc3ccccn23)cc1
→ -0.35	49
CCCCOc1ccc(C(=O)OCC2CCCN3CCCCC23)cc1OC (stereo not drawn)
→ -0.6	.

# (more compounds)
# Fields – AID504770	Ba CapD inh
CSC(=NC(=O)c1c(Cl)cccc1Cl)SC
→ .	-0.55
OCCCc1nc2ccccc2n1CC1CCCCC1
→ 0.2	0.39
O=C(c1ccc(C#Cc2ccccc2)o1)N1CCOCC1
→ 0.3	-0.215
O=C(COc1ccc(F)cc1)Nc1ccc2c(c1)OCCO2
→ 0.45	0.515
CN(C)C(=O)CSc1nnc2c(Cl)cc(Cl)cn12
→ -0.05	.
CC1(C)CC(=O)C(C=NC2CCCC2)=C(O)C1
→ -0.15	-0.28
CN1CCN(c2ncc(C#N)c(N)n2)CC1
→ 2.2	-0.735
Cc1ccc(S(=O)(=O)Nc2ccc(C)c([N+](=O)[O-])c2)cc1
→ .	0.245
Cc1ccc(C(CC(=O)c2ccco2)Sc2ccccc2N)cc1 (stereo not drawn)
→ -0.15	-0.315
O=C(Nc1ccccc1Oc1ccccc1)c1cccs1
→ -0.4	1.56
c1coc(-c2nc(-c3ccco3)c(-c3ccco3)nc2-c2ccco2)c1
→ -0.45	.
CN(Cc1ccccc1)C(=O)CSc1nnc(-c2ccccc2F)n1N
→ 1.65	.
CCSC1=N/C(=C\c2ccc(-c3cccc(Cl)c3)o2)C(=O)S1
→ 0.05	-0.18
Cc1ccc(C23CC4CC(CC(CN5CCCCC5)(C4)C2)C3)cc1
→ .	0.14
COc1ccc(N2C(=O)CSC2c2ccc(Br)cc2)cc1Cl (stereo not drawn)
→ .	0.085
CN(C)S(=O)(=O)N1CCn2cccc2C1c1ccccc1 (stereo not drawn)
→ -0.35	.
Cc1ccc(CNCC(O)(c2ccc(F)cc2)c2ccc(F)cc2)cc1
→ .	-0.4
COc1cccc(-c2nc(-c3ccc(NC(=O)c4ccc(Br)o4)cc3)no2)c1
→ .	-0.28
CC(C)(C)n1cnc2cc(NCc3ccccn3)ccc21
→ -0.05	-0.395
COC(=O)c1ccc(N=C2SC(C(=O)Nc3ccc(C)c(Cl)c3)CC(=O)N2C)cc1 (stereo not drawn)
→ .	-0.455
Cc1ccc(S(=O)(=O)Nc2cc(-c3ccccc3)nn2C)cc1Cl
→ -1.05	-1.34
Cc1ccc(S(=O)(=O)NC(Cc2ccccc2)C(=O)NN)cc1 (stereo not drawn)
→ 0.1	.
CC1CCC/C(=C/Nc2ccc3c(c2)OCO3)C1=O (stereo not drawn)
→ -1.05	41.2
CCC(Sc1nc2ccccc2c(=O)n1CC1CCC(C(=O)NCC2CCCO2)CC1)C(=O)NCc1ccco1 (stereo not drawn)
→ .	-0.68
CN1/C(=C2/SC(=S)N(N)C2=O)Sc2ccccc21
→ 0	.
Nc1nc(NCc2cccs2)nn1-c1ccccc1
→ -0.15	-0.12
Cc1cc(C)cc(NC(=O)c2ccc3c(c2)NC(=O)c2ccccc2S3)c1
→ 1.9	0.295
COc1ccc(C(=O)c2coc3ccc(O)c(CN4CCCC4)c23)cc1
→ -0.3	-0.51
CCOC(=O)c1c(C)[nH]c(C(=O)CSc2nc3ccccc3o2)c1C
→ -0.6	.
O=C(NCc1cccnc1)c1ccc(COc2ccc3c(c2)CCC3)o1
→ 0.2	-0.145
O=C(COc1ccccc1)OCCN1CCCC1=O
→ -1	-0.22
COc1ccccc1CNC(=O)COC(=O)Cc1ccsc1
→ 1.45	.
O=C(O)CSc1ccc(F)cc1Cl
→ -0.8	-0.235
O=C(O)c1ccccc1C(=O)Nc1ccc(-n2nccc2C(F)(F)F)cc1
→ 0.7	0.315
CN(C)c1ccc(/C=C2/C(=O)C3CCN2CC3)cc1
→ -1.55	.
CC1(C)C2CCC1(CS(=O)(=O)Nc1ccc(F)c(Cl)c1)C(=O)C2 (stereo not drawn)
→ 0	-0.49
Cc1nn(-c2ccccc2)c2sc(C(=O)NCCCN3CCCC3=O)cc12
→ -0.1	7.75
CCCS(=O)(=O)c1c(S(=O)(=O)CCC)c2cc(-c3ccncc3)ccn2c1C(=O)c1ccc(C)cc1C
→ .	1.05
Cc1cc(C)cc(-n2c(SCC(=O)Nc3ccccc3C(F)(F)F)nc3c(c2=O)SCC3)c1
→ 1.75	-0.27
CNC(=O)/C(=C\c1ccc(Cl)cc1)NC(=O)c1ccco1
→ 2.45	-0.48
Oc1cccc(-c2nc3cnccn3c2Nc2ccccc2)c1
→ -0.7	16.8
CCOc1ccc(NC(=O)CSc2nnc(NC(=O)c3cc([N+](=O)[O-])ccc3Cl)s2)cc1
→ .	-0.32
CCOC(=O)c1ccc(N2C(=O)C3C4c5ccccc5C(C(C)=O)(c5ccccc54)C3C2=O)cc1 (stereo not drawn)
→ .	-0.365
Cc1ccc(NC(=O)NC(=O)Cn2ccsc2=N)c(C)c1
→ 0.9	.
CC1CN(CC(=O)C(C#N)c2ccccc2)CC(C)O1 (stereo not drawn)
→ -0.7	0.085

# The results go on.
molecule,AID504770,Ba CapD inh
O=C(NCc1ccccc1)C(Cc1ccccc1)NS(=O)(=O)c1cccc2nsnc12 (stereo not drawn),1.7,-3.29
O=C(Nc1ccccc1)c1ccc2cccnc2n1,.,-0.885
COc1ccc(NC(=O)N2c3ccccc3Sc3ccccc32)cc1,0.1,3.19
CC1CC2c3cccc(C(=O)O)c3C(=O)N2Cc2ccccc21 (stereo not drawn),-0.15,-0.56
CCOc1ccc(C(=O)O)o1,-0.5,.
COc1ccc(N2CCN(c3ncnc4sc(C(=O)NCCN5CCOCC5)c(C)c34)CC2)cc1,.,-0.645
COc1ccc(-c2csc(NC(=O)C3CCCCC3)n2)cc1,-0.2,-0.09
CCCCOc1ccc(C(=O)Nc2ccc(Sc3nc(C)cc(C)n3)cc2)cc1,.,-1.1
CC1(C)CC(=O)C2=C(C1)NC1=C(C(=O)CC(C)(C)C1)C2c1ccc(OCc2ccccc2)cc1,.,37.6
CCOc1ccc(/C=C2\N=C(c3cc([N+](=O)[O-])ccc3Cl)OC2=O)c(OC(C)=O)c1,.,0.92
CC12CC(c3ccccc3O1)C(c1nnc(-c3ccccc3)o1)C(=O)N2 (stereo not drawn),.,0.25
O=C(Nc1ccccc1F)C(Cl)Cl,.,0.145
CC1CCCC(C)N1C(=O)CSc1nc2ccccc2s1 (stereo not drawn),1.65,0.315
CCc1ccc(S(=O)(=O)NCC(O)c2ccccc2)cc1 (stereo not drawn),0.5,0.21
CC1(C)C2CCC1(C)C(OC(=O)CSc1ncn[nH]1)C2 (stereo not drawn),-0.2,0.77
O=C(Oc1ccccc1)C(c1ccccc1)c1ccccc1,-1.5,-0.505
COc1ccc(C(=O)CSc2nc3ccccc3n2C)c(F)c1,0.95,-0.45
Cn1c(C2CC(=O)N(CCc3ccccc3)C2)nc2ccccc21 (stereo not drawn),1.7,.
CCOC(=O)Cn1c(=NC(=O)c2ccccc2Br)sc2cc(C)ccc21,0.1,1.51
O=C(O)CCc1nc(-c2cc(C(F)(F)F)cc(C(F)(F)F)c2)no1,.,-0.585
COc1ccc(N/C=C/C(=O)c2ccc3c(c2)OCO3)cc1OC,0.35,-0.13
O=C(c1nn2c(C(F)(F)F)cc(-c3ccc(Cl)cc3)nc2c1Cl)N1CCOCC1,.,0.105
Cc1cn2c(=O)c(C(=O)NCCCN3CCN(CCCNC(=O)c4cnc5sc(C)cn5c4=O)CC3)cnc2s1,0.05,.
C=CCn1c(-c2ccncc2)nn(CN2CCCC(C(=O)OCC)C2)c1=S (stereo not drawn),-0.1,.
COc1ccc(-c2cc(C(=O)Nc3cc(Cl)ccc3OC)c3ccccc3n2)cc1,-0.2,1.77
COC(CNC(=O)c1ccc2c(c1)C(=O)N(CCc1ccccc1)C2=O)OC,-0.3,.
CC(C)Cc1cc(C(=O)Nc2cc(Br)ccc2O)no1,-0.75,-0.77
CCOC(=O)c1ccc(S(=O)(=O)NNS(=O)(=O)c2ccc(C)cc2)cc1,0.15,.
Nc1ccc(N2CCCCC2)cc1,0.05,0.025
O=C(c1ccc(F)cc1)C1CCN(C(=O)OCCCCCc2ccccc2)CC1,.,-1.1

# Among those listed so far, 2 have an NH in an aromatic ring.
molecule,AID504770,Ba CapD inh
CCOC(=O)c1c(C)[nH]c(C(=O)CSc2nc3ccccc3o2)c1C,-0.6,.
CC1(C)C2CCC1(C)C(OC(=O)CSc1ncn[nH]1)C2 (stereo not drawn),-0.2,0.77

# Next section
molecule,AID504770,Ba CapD inh
CCOC(=O)c1c(NC(=O)C(F)(F)F)sc2c1CCCC2,-0.15,1.46
O=C(Nc1ccccc1C(=O)NC1CCSC1)c1cccc(Cl)c1 (stereo not drawn),0.4,0.39
O=C(c1ccccc1)N(Cc1ccco1)C1CCS(=O)(=O)C1 (stereo not drawn),-1.2,0.415
N#CCN(CC#N)S(=O)(=O)c1ccccc1,-0.45,.
COc1cc(C=C2C(=O)N(C)C(=O)N(C)C2=O)cc(Cl)c1OCCOc1ccc(C)c(C)c1,.,-1.01
O=C(NCCC(=O)c1ccc(F)cc1)Nc1ccncc1,.,-0.15
COc1cc2c(cc1OC)C(C(=O)Nc1cc(C)c(OC)c(C)c1)CC(=O)N2 (stereo not drawn),0.35,.
N/C(COc1ccccc1)=N\O,0.85,9.64
O=C1C=CC(=O)C(CCCCCCC2=CC(=O)C=CC2=O)=C1,-0.1,0.1
O=C1/C(=C/c2ccc(-c3ccc(Br)cc3)o2)C=C(c2ccccc2)N1c1cccc([N+](=O)[O-])c1,.,0.025
COc1cc(Nc2ncnc3c2cnn3-c2cccc(C)c2)cc(OC)c1OC,.,-0.565
Cc1cc(NC(=O)COc2ccccc2)n(-c2ccccc2)n1,0,0.17
OC(COc1ccc(-c2csnn2)cc1)CSc1ccccc1 (stereo not drawn),-1.15,-0.24
CC(C)N1CC(COc2ccc(F)cc2)OC1=O (stereo not drawn),-0.65,-0.99

# This is a random part of the collection; 0.37% or so of the library scored in one or more.
